Assay outcomes deposited in PubChem BioAssay by National Center for Advancing Translational Sciences (NCATS).
LT uptake inh: blocks cellular internalization of anthrax lethal toxin; 70,000 compounds, 0.67% hits; Cells, anthrax lethal toxin internalization, FRET ratio (460/530); Potency, µM (top dose mostly 40 µM), without a hit: top-dose activity change, negative = inhibition, most hits filed as inhibitors; active = well fitted falling ratio curve with the 530 nm signal flat; inconclusive = other ratio curves, or a change in one channel alone; inactive = flat curves in the ratio and both channels; the % refers to the ratio; note: % is set by controls: 0 for no effect and ±100 for the full control effect; nearly all actives have a fitted effect of over 50% in size; tested in ME-180 cells; beta-lactamase reporter
SmPrx2 inh: Schistosoma mansoni Prx2 inhibition; S. mansoni Prx2 activity coupled to TGR/GSH (TGR is thioredoxin glutathione reductase), NADPH fluorescence loss, qHTS; some inactives read as strong as hits; Potency, µM; 65,000 compounds, 0.07% hits; active means full or partial inhibition curve with a strong effect at the top dose; inconclusive means weaker partial or single-point curve; inactive means no accepted curve; note: series up to 57 µM; many of its hits are not listed in these tables
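Prx2 inhibition was measured as reduced NADPH consumption when electrons flowed from NADPH through TGR and glutathione to Prx2 and H2O2. Plates were read kinetically over 8 min; enzyme reagents were held at 4 deg C during dispensing.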
The depositor's hits bear a star; ? = inconclusive; · = not tested or not shown; & = joins results of further samples; [ ] = dose if it differs, or a comment. Potency is the fitted concentration of half-maximal effect.

SMILES	LT uptake inh	SmPrx2 inh
CC(C)C(NC(=O)c1cccs1)c1nnc(SCC(=O)Nc2nccs2)n1C (configuration not stated)	4%	>57
Cc1nc(NC(=O)CN2CCOCC2)sc1-c1ccccc1	-26%	>57
O=C(Nc1ccc(Cc2ccncc2)cc1)c1ccc(Br)o1	-15%	>57
COc1ccc(OC)c(CCNC(=O)CC2Oc3ccccc3NC2=O)c1 (configuration not stated)	-7%	>57
CCc1[nH]nc2c1C1(C(=O)N(Cc3ccccc3)c3ccccc31)C(C#N)=C(N)O2 (configuration not stated)	-3%	>57
CCOc1ccc2[nH]c(=O)c(CN(Cc3ccco3)Cc3nnnn3Cc3ccccc3)cc2c1	-12%	>57
COCCn1c(=O)cnc2cnc(N(C)C)nc21	-7%	>57
CCN1CCN(C(=O)C(C)N(c2ccc(C)cc2)S(C)(=O)=O)CC1 (configuration not stated)	7%	>57
O=c1cc(CSc2nnnn2-c2ccccc2)nc2nc[nH]n12	-12%	>57
CCCn1c(SCC(=O)Nc2nc(C)cs2)nnc1-c1cccnc1	5%	>57
CCN(CC)C(=O)N[C@H]1C[C@H]2c3cccc4[nH]cc(c34)C[C@@H]2N(C)C1	-13%	>57
CCOC(=O)c1[nH]c(C)c(C(=O)NC2CCCCCC2)c1C	5%	>57
Cc1ccc(N(CC(=O)Nc2ccc(S(=O)(=O)N3CCOCC3)cc2)S(C)(=O)=O)cc1C	-16%	>57
CCOC(=O)CSc1nnc(CSc2nc3ccccc3c(=O)[nH]2)n1-c1ccccc1	16%	>57
O=C(NCc1cn2ccsc2n1)c1cccc(C(F)(F)F)c1	12%	>57
COc1ccc(Cl)c(Cn2c(NCCCO)nc3c2c(=O)n(C)c(=O)n3C)c1	21%	>57
Fc1ccc(-c2cc3nc(-c4ccccc4)cc(N4CCOCC4)n3n2)cc1	6%	>57
O=C(C1CCCC1)N(c1ccccc1)C1C=CS(=O)(=O)C1 (configuration not stated)	-21%	>57
O=C(NCCO)c1cc2ccccc2cc1O	?	>57
COc1ccc(CCC(=O)NCc2cn3ccsc3n2)cc1	3%	>57
[N-]=[N+]=CC(=O)CC(c1ccccc1)N1C(=O)c2ccccc2C1=O (configuration not stated)	?	>57
COc1ccc(OC)c(C(c2nnnn2C2CCCC2)N2CCN(c3ccc(F)cc3)CC2)c1 (configuration not stated)	?	>57
Nn1c(CN2CCCCC2)nc2ccccc2c1=O	-2%	>57
Cc1ccc(/C(O)=C2/C(=O)C(=O)N(CCN3CCOCC3)C2c2ccccn2)cc1 (configuration not stated)	1%	>57
CCOc1cc(-c2nc(-c3ccncc3)no2)cc(OCC)c1OCC	-9%	>57
O=C(O)C1CC=CCC1C(=O)Nc1cccc(Cl)c1 (configuration not stated)	25%	·
N#Cc1c(NC(=O)CSc2ncn[nH]2)sc2c1CCCCC2	-15%	>57
COc1ccc(-n2c(NC(=O)c3ccco3)c(C#N)c3nc4ccccc4nc32)cc1	?	>57
CCCNC(=O)N1CCN(c2nc(C(C)C)c3c(c2C#N)CC(C)(C)OC3)CC1	10%	>57
CCCCC(CC)C(=O)O (configuration not stated)	9%	·
CCOC(=O)c1nnc2ccnn2c1N	?	>57
COc1cccc(-c2nc(CS(=O)CC(=O)O)c(C)o2)c1 (configuration not stated)	-2%	>57
CC[N+](CC)(CC)CC(=O)Nc1c(C)cccc1C	-7%&-1%	>57&>57
O=C(Cc1ccccc1)NCCn1ccc2ccccc21	4%	>57
COCCCNC(=O)Cn1nnc(-c2ccccc2NC(=O)c2ccc(F)cc2)n1	9%	>57
COc1cccc(NC(=O)N2CCCC2C(=O)NC2CC2)c1 (configuration not stated)	5%	>57
CC(C)CN1CC[C@@]2(CCCN(C(=O)c3cnccn3)C2)C1	2%	>57
COc1ccc(C2N=C(c3ccccc3)C(C)(C)N2O)cc1OC (configuration not stated)	-25%	·
O=C(c1cccc2cccc(O)c12)N1CCCCC1	·	>57
COc1ccc(C(=O)NCC(=O)O)cc1	-4%	>57
CCc1ccccc1NC(=O)CSc1ncn[nH]1	-19%	>57
CCC1Oc2ccc(C)cc2N(CC(=O)N(Cc2cccnc2)Cc2ccc(C)o2)C1=O (configuration not stated)	-14%	>57
Cc1ccc(Cl)cc1NC(=O)COC(=O)C1CCCC1	-2%	>57
Cc1csc2ncc(C(=O)Nc3ccon3)c(=O)n12	4%	>57
CCOC(=O)Nc1ccc2c(CN3C(=O)NC4(CCCC4)C3=O)cc(=O)oc2c1	?	>57
Cc1cc(C)c(NC(=O)NC(=O)c2cccc(F)c2)c(C)n1	14%	>57
COC1=CC(=O)OC12CCCCC2	-8%	·
COc1ccc(NC(=O)CSc2nnc(-c3cccnc3)n2Cc2ccco2)c(OC)c1	?	>57
O=C(CSc1nnc(-c2ccco2)n1CC1CCCO1)c1ccc(F)cc1 (configuration not stated)	?	>57
COc1ccc(C(C(=O)NC2CCCC2)N(C(=O)c2ccco2)c2ccc3c(c2)OCO3)cc1OC (configuration not stated)	-4%	>57

The final seven entries of the section before open the next one:
SMILES	LT uptake inh	SmPrx2 inh
Cc1csc2ncc(C(=O)Nc3ccon3)c(=O)n12	4%	>57
CCOC(=O)Nc1ccc2c(CN3C(=O)NC4(CCCC4)C3=O)cc(=O)oc2c1	?	>57
Cc1cc(C)c(NC(=O)NC(=O)c2cccc(F)c2)c(C)n1	14%	>57
COC1=CC(=O)OC12CCCCC2	-8%	·
COc1ccc(NC(=O)CSc2nnc(-c3cccnc3)n2Cc2ccco2)c(OC)c1	?	>57
O=C(CSc1nnc(-c2ccco2)n1CC1CCCO1)c1ccc(F)cc1 (configuration not stated)	?	>57
COc1ccc(C(C(=O)NC2CCCC2)N(C(=O)c2ccco2)c2ccc3c(c2)OCO3)cc1OC (configuration not stated)	-4%	>57
COC(=O)[C@@]1(Cc2ccc(OC)cc2)[C@H]2c3cc(C(=O)N(C)C)n(Cc4cc(F)c(F)c(F)c4)c3C[C@H]2CN1C(=O)c1ccccc1	?	>57
CCOC(=O)N1CCC(Nc2ccc3nnc(-c4ccccc4)n3n2)CC1	?	>57
O=C(Cn1cccc1C(=O)c1ccccc1)NCCCN1CCOCC1	-3%	>57
CCOC(=O)c1cn(-c2ccccc2)nc1-c1ccncc1	-9%	>57
NCOC(=O)Cc1ccc(Br)cc1	-3%[8 µM]	>57
CN1CCC(=C2c3ccccc3C=Cc3ccccc32)CC1	7.9µM*	>57&>57&>57
Cc1ccccc1C(=O)c1cccn1CC(=O)N1CCCCCC1	13%	>57
CC(=O)c1c(C)[nH]c(C(=O)Nc2cccnc2)c1C	6%	>57
Cc1nn(C)c(C)c1S(=O)(=O)N1CCC(C(=O)NCC2COc3ccccc3O2)CC1 (configuration not stated)	-6%	>57
COCCn1nnnc1C(c1ccc(OC)cc1)N1CCN(c2ccccc2F)CC1 (configuration not stated)	9%	>57

Shown with two lines to a compound: entries from further up
Under each structure: LT uptake inh, SmPrx2 inh
> COC(=O)[C@@]1(Cc2ccc(OC)cc2)[C@H]2c3cc(C(=O)N(C)C)n(Cc4cc(F)c(F)c(F)c4)c3C[C@H]2CN1C(=O)c1ccccc1
    ?, >57
> CCOC(=O)c1cn(-c2ccccc2)nc1-c1ccncc1
    -9%, >57
> COCCn1nnnc1C(c1ccc(OC)cc1)N1CCN(c2ccccc2F)CC1 (configuration not stated)
    9%, >57
> NCOC(=O)Cc1ccc(Br)cc1
    -3%[8 µM], >57
> CC(=O)c1c(C)[nH]c(C(=O)Nc2cccnc2)c1C
    6%, >57

Carrying on:
SMILES	LT uptake inh	SmPrx2 inh
CCc1c(C)c2ccc(OCC(=O)N(C)C)c(C)c2oc1=O	?	>57
CC1CN=C(NC2CCCCC2C)S1 (configuration not stated)	-6%	>57
CCOC(=O)c1[nH]c2cc(OC)c(OC)cc2c1NC(=O)CN(C)C1CCCCC1	-16%	·
CC(C)CC(c1nnnn1CC1CCCO1)N1CCN(c2nc3ccccc3s2)CC1 (configuration not stated)	-8%	>57
COc1cccc([C@H](O)Cn2cc(-c3ccc(CON=C(C)C)cc3)nn2)c1	-2%[8 µM]	·
O=C(NCCc1ccccn1)c1ccc(COc2ccccc2)o1	?	>57
CC1CN(C(=O)C2CCCCC2)C(C)CN1C(=O)C1CCCCC1 (configuration not stated)	12%	>57
O=C(CSc1n[nH]c(-c2ccncc2)n1)NC1CCS(=O)(=O)C1 (configuration not stated)	-1%	>57
COc1ccc(-c2cc(C(F)(F)F)nc(N3CCCCC3)n2)cc1OC	-11%	>57
CC[C@@H]1O[C@]2(C=C[C@@H]1C)C[C@H]1C[C@H](CC=C(C)[C@@H](O[C@@H]3C[C@H](OC)[C@H](O[C@@H]4C[C@H](OC)[C@H](O)[C@H](C)O4)[C@H](C)O3)[C@@H](C)C=CC=C3CO[C@@H]4[C@@H](O)C(C)=C[C@@H](C(=O)O1)[C@]34O)O2	?	·
CCOC(=O)CSc1nnc(-c2ccc(NS(=O)(=O)c3ccc(C)cc3)cc2)o1	21%	>57
O=c1cc(N2CCN(Cc3ccccc3)CC2)[nH]c(=O)n1Cc1ccc(F)cc1	-8%	>57
CCCCOCCCNC(=O)CN1C(=O)c2ccccc2C1=O	-8%	·
COc1ccc(N2C(=O)CSC2c2ccncc2)cc1 (configuration not stated)	13%	>57
COc1ccc(NC(=O)N2CCCC3(CCN(S(C)(=O)=O)CC3)C2)cc1	?	>57
CC(=O)Nc1ccc(NC(=O)C2CCCN(c3nnc(-n4cccc4)s3)C2)cc1 (configuration not stated)	-3%	>57
COc1ccc(CCNC(=O)c2nc3ncccn3n2)cc1OC	?	>57
OC[C@@H]1O[C@@H](O)[C@H](N=Cc2ccc3c(c2)OCO3)[C@@H](O)[C@@H]1O	-6%[8 µM]	>57
OC1CN=C2C=CC=CN2C1 (configuration not stated)	4%	>57
CC(=O)OC[C@@H]1O[C@@H](O/N=C2/C[C@@H](O)[C@@H](O)[C@@H]3[C@@H]4C(=O)N(C5CCCCC5)C(=O)[C@H]4CC[C@@H]23)[C@H](OC(C)=O)[C@H](OC(C)=O)[C@@H]1OC(C)=O	-13%[8 µM]	·
CC1=C(C(=O)NC2CCCCC2C)C2(CCC(C)CC2)OC1=O (configuration not stated)	-17%	>57
COc1ccc(NC(=O)N2CC3(CCN(C(=O)c4cnccn4)CC3)C2)cc1	3%	>57
N#C[C@H](C(=O)O)C(c1c(Cl)cccc1Cl)[C@H](C#N)C(=O)O	-6%[8 µM]	>57
NC(=O)c1oc2ccccc2c1NC(=O)C1CCCCC1	22%	>57
COC(=O)c1ccc(C(NC(=O)OCc2ccccc2)/C(F)=C/[C@@H](C)C(=O)NCCN2CCOCC2)cc1 (some centres not stated)	-9%	·
COC(=O)CNC(=O)c1c(-c2c(Cl)cccc2Cl)noc1C	-8%	·
COC(=O)c1ccc(C(/C=C/[C@@H](C)C(=O)NCCc2c[nH]c3ccccc23)NC(=O)OCc2ccccc2)cc1 (some centres not stated)	2%	·
O=C(C1COc2ccccc2O1)N1CCN(c2ccccc2)CC1 (configuration not stated)	6%	>57
COc1ccc(C(=O)Nc2cccc(-c3nc4ncccc4o3)c2C)cc1OC	2%	>57
COC(=O)CCSCc1cn2cc(Cl)ccc2n1	12%	>57
O=C1C2CCN(CC2)C1Cc1ccc(OCCOc2ccccc2)cc1 (configuration not stated)	·	>57
COc1cccc(CNC(=O)Nc2cccs2)c1	?	>57
Cc1cccc(C(=O)NCCN2CCN(c3ccccc3)CC2)c1	1%	>57
O=C(CSc1nc2ccccc2o1)NCc1ccco1	-7%	·
Cc1ccc(Cn2nnc3c(=O)n(Cc4cc(C)ccc4C)cnc32)cc1	-28%	>57
O=C(O)CCc1nc2cccnc2n1Cc1ccccc1	15%	>57
CC1CCN(C(=O)CSc2nnc(Cc3ccccc3)o2)CC1	2%	>57
CCN(Cc1ccccc1)C(=O)CCc1nc(-c2ccc(C)cc2)no1	-2%	>57
CCCCCC1=C2CNC(Cc3ccccc3)(C(=O)OC)C=C2C(C)C1=O (configuration not stated)	-8%	>57
CC(=O)NCCCc1c[nH]c2ccc(Cl)cc12	1%	>57
COc1ccc(CCn2c(O)c(C=NCCCN(C)C)c(=O)[nH]c2=O)cc1OC	10%	>57
O=S(=O)(NC1CCCC1)c1ccc(S(=O)(=O)NC2CCCC2)cc1	-13%	>57
C=C1C(C(=O)N2CCN(C)CC2)C1C(=O)N1CCN(C)CC1 (configuration not stated)	-7%	>57
Cc1ccc(C(=O)Nc2ccc(Cl)cn2)cc1S(=O)(=O)N1CCOCC1	2%	>57
Cc1ccc(C)o1	?	·
CCCCCC[N+](=O)[O-]	-3%	·
CCOc1cc(C#N)c(NC(=O)c2cccnc2)cc1OCC	-12%	>57
CCOC(=O)Cc1csc(SCc2nc3ccccc3c(=O)[nH]2)n1	?	>57
O=C(c1ccco1)N1CCC2(CCCN(c3ccccn3)C2)CC1	?	>57
CCOC(=O)C(C)Oc1cccc2c(=O)n(CC(=O)N3CCc4ccccc43)ccc12 (configuration not stated)	12%	>57

Additional records.
SMILES	LT uptake inh	SmPrx2 inh
O=C(NC1(C(=O)NC2CCCC2)CCCCC1)c1ccc2c(c1)OCO2	21%	>57
CCOC(=O)c1cc2c(n(-c3ccc(C)cc3)c1=O)CCCC2=O	1%	>57
CCOC(=O)c1cc(-c2nnc(-c3ccc(Cl)cc3)o2)c(C)nc1C	-8%	>57
COc1cc(C(=O)Nc2cccc(-c3nc4ncccc4o3)c2C)cc(OC)c1OC	-5%	>57
CC(C)C(NC(=O)OCc1ccccc1)C(=O)OCC(=O)N1CCCCC1 (configuration not stated)	23%	>57

An excerpt; rates above refer to the full screens.
